Source: PubChem BioAssay (National Center for Advancing Translational Sciences (NCATS))
VDR inh: vitamin D3 receptor (human) inhibition; P11473; VDR-SRC2-3 peptide fluorescence polarization, 2 h; Potency, µM, for inactives: max response, negative = inhibition, most hits filed as inhibitors; hit rate 0.93% among 400,000; active means well fitted inhibition curve with a large enough effect; inconclusive means small, poorly fitted or top-dose-only effect, or another doubt; inactive means no such curve, though single readings can be large or run the other way; further: series mostly up to about 120 µM
Target sequence (P11473 whole entry, looked up): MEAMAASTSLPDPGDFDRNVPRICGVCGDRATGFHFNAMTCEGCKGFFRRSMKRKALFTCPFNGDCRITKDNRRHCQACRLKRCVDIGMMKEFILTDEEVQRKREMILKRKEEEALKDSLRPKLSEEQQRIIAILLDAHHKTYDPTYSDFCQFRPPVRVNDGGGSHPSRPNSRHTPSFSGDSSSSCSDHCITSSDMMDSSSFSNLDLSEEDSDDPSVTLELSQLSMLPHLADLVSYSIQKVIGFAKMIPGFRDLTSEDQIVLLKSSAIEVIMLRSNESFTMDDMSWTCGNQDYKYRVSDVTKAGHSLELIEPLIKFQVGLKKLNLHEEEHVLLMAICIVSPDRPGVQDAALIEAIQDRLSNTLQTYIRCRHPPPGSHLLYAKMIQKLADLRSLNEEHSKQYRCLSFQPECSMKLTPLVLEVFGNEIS
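FP read-out; VDR + SRC2-3 coactivator peptide; 23 nl compound by pintool; 2 h RT incubation; reagents held at 4 deg C, protected from light.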
Active calls of the source: *; & = joins results of further samples. On the % scale 0 is the no-effect control and ±100 the full control effect; potency means the concentration at half of the fitted maximal effect. Only part of the results is shown; the hit share may differ from the screen's.

CCC(Oc1ccccc1)C(=O)N1CCN(S(=O)(=O)c2ccccc2)CC1 (stereo not drawn) was read as VDR inh -12%.
`O=C(CCn1c(=O)sc2ccccc21)NCc1cccs1` gave VDR inh 12%.
`CCOC(=O)N1CCN(C(=O)c2cnn(-c3cccc(C)c3)c2-n2cccc2)CC1` gave VDR inh 8%.
For COc1ccc2c(c1)O[C@@H](c1ccc3c(c1)OCO3)[C@H](O)C2=O the results were VDR inh 1%.
Screening CCN(CC(=O)NCc1ccc(Cl)cc1)C(=O)c1cc(S(=O)(=O)NCc2ccccc2)ccc1C returned VDR inh -16%.
Screening O=C(Nc1ccc(F)cc1F)c1ccccc1-c1ccccc1 returned VDR inh -20%.
Screening COCCNC(=O)c1sc2nc3n(c(=O)c2c1C)CCC3 returned VDR inh 5%.
CCc1c(C)nc(SC)n(CC#N)c1=O was read as VDR inh 9%.
For CC(C)(C)NC(=O)C(c1ccc(O)cc1)N(C(=O)CCC(=O)Nc1nccs1)c1ccccc1F (stereo not drawn) the results were VDR inh -4%.
For O=S(=O)(c1ccccc1)c1cnc(-c2cccnc2)nc1-c1ccc(Cl)cc1Cl the results were VDR inh 10%.
O=C(Cc1coc2cc3c(cc12)CCC3)OCc1cc(=O)n2c(n1)sc1ccccc12 was read as VDR inh -7%.
Screening CC(C)CCN1CC(=O)N2[C@@H](Cc3c([nH]c4ccccc34)C2(C)C)C1=O returned VDR inh 24%.
For COc1ccc(-c2cc(-n3c(C(F)(F)F)nc4ccccc43)n(CCC#N)n2)cc1 the results were VDR inh -2%.
O=C(C1CCN(S(=O)(=O)c2ccccc2)CC1)N1CCCCC1 was read as VDR inh 1%.
For COC(=O)C1=C(Nc2ccccc2NC(=O)CCCC(=O)O)CSC1 the results were VDR inh -5%.
CCOC(=O)c1c(C)nc2sc3c(=O)[nH]cnc3c2c1-c1ccc(OC)cc1 was read as VDR inh -11%.
COc1ccc(C2=C(C)C(N3CCN(c4ccc(OC)cc4)CC3)=NS2(=O)=O)cc1 was read as VDR inh -1%.
`CCOc1ccccc1NC(=O)c1nnn(CC(=O)Nc2cc(C)cc(C)c2)c1N` gave VDR inh 14%.
For S=C(NCc1ccco1)Nc1ccc(Br)cn1 the results were VDR inh -19%.
For CCCNC(=S)N1CCC(C(=O)c2ccc(Cl)cc2)CC1 the results were VDR inh 1%.
Screening Cc1nc2ccc3nc(NC(=O)C4COc5ccccc5O4)sc3c2s1 (stereo not drawn) returned VDR inh -1%&12%.
Screening Cc1ccc(NC(=O)C2CCCN(S(=O)(=O)c3cccnc3)C2)c(C)c1 (stereo not drawn) returned VDR inh 0%.
`CC1(C)C[C@@H](O)[C@]2(C)CC[C@]3(C)C(=CCC4[C@@]5(C)CC[C@H](O)[C@](C)(CO)C5CC[C@]43C)[C@@H]2C1` (stereo partly drawn) gave VDR inh -24%.
O=C(NCCCN1CCOCC1)c1cc2c(s1)CCC2 was read as VDR inh -9%.
CCCCCn1cc2c(c1-c1ccc(Br)cc1)c(=O)n(C)c(=O)n2C was read as VDR inh 6%.
CCOCCCNCC(=O)NC1(C)C2CCC(C2)C1(C)C (stereo not drawn) was read as VDR inh 14%.
CC(C)CCn1c(SCC(=O)NC2CC2)nc2cc(Cl)ccc2c1=O was read as VDR inh 9%.
For COc1cccc(/C=N/NC(=O)C(C)n2nc(C)c([N+](=O)[O-])c2C)c1O (stereo not drawn) the results were VDR inh -16%.
CCOc1ccccc1NC(=O)c1cc(S(=O)(=O)NC2CCCC2)ccc1F was read as VDR inh -9%.
Cc1cc(C)cc(-n2c(C)cc(/C=N/NC(=O)c3cccc([N+](=O)[O-])c3C)c2C)c1 was read as VDR inh 10%.

Two records drawn at random from the list so far:
Screening Cc1ccc(NC(=O)C2CCCN(S(=O)(=O)c3cccnc3)C2)c(C)c1 (stereo not drawn) returned VDR inh 0%.
`CCOc1ccccc1NC(=O)c1nnn(CC(=O)Nc2cc(C)cc(C)c2)c1N` gave VDR inh 14%.

15 compounds from above, arranged by length of the SMILES, largest number first.
`CC1(C)C[C@@H](O)[C@]2(C)CC[C@]3(C)C(=CCC4[C@@]5(C)CC[C@H](O)[C@](C)(CO)C5CC[C@]43C)[C@@H]2C1` (stereo partly drawn) gave VDR inh -24%.
Cc1cc(C)cc(-n2c(C)cc(/C=N/NC(=O)c3cccc([N+](=O)[O-])c3C)c2C)c1 was read as VDR inh 10%.
COc1ccc(C2=C(C)C(N3CCN(c4ccc(OC)cc4)CC3)=NS2(=O)=O)cc1 was read as VDR inh -1%.
O=C(Cc1coc2cc3c(cc12)CCC3)OCc1cc(=O)n2c(n1)sc1ccccc12 was read as VDR inh -7%.
CCOC(=O)c1c(C)nc2sc3c(=O)[nH]cnc3c2c1-c1ccc(OC)cc1 was read as VDR inh -11%.
`CCOc1ccccc1NC(=O)c1nnn(CC(=O)Nc2cc(C)cc(C)c2)c1N` gave VDR inh 14%.
Screening Cc1ccc(NC(=O)C2CCCN(S(=O)(=O)c3cccnc3)C2)c(C)c1 (stereo not drawn) returned VDR inh 0%.
CCOc1ccccc1NC(=O)c1cc(S(=O)(=O)NC2CCCC2)ccc1F was read as VDR inh -9%.
CC(C)CCn1c(SCC(=O)NC2CC2)nc2cc(Cl)ccc2c1=O was read as VDR inh 9%.
For COC(=O)C1=C(Nc2ccccc2NC(=O)CCCC(=O)O)CSC1 the results were VDR inh -5%.
O=C(C1CCN(S(=O)(=O)c2ccccc2)CC1)N1CCCCC1 was read as VDR inh 1%.
For CCCNC(=S)N1CCC(C(=O)c2ccc(Cl)cc2)CC1 the results were VDR inh 1%.
CCOCCCNCC(=O)NC1(C)C2CCC(C2)C1(C)C (stereo not drawn) was read as VDR inh 14%.
O=C(NCCCN1CCOCC1)c1cc2c(s1)CCC2 was read as VDR inh -9%.
For S=C(NCc1ccco1)Nc1ccc(Br)cn1 the results were VDR inh -19%.

(listing goes on)
`O=C(CSCc1ccc(Br)cc1)Nc1ccc(S(=O)(=O)N2CCOCC2)cc1` gave VDR inh -10%.
For Cc1ccc(/C=C/C(=O)Nc2ccc([N+](=O)[O-])cc2)o1 the results were VDR inh -1%.
`Cc1ccccc1NC(=O)c1c(NC(=O)C(C)Oc2cccc(Cl)c2)sc2c1CCCC2` (stereo not drawn) gave VDR inh inconclusive.
`COC(=O)CN1C(=O)N/C(=C/c2ccc(C)o2)C1=O` gave VDR inh -16%.
For COc1ccccc1OCC(=O)Nc1ccncc1 the results were VDR inh -13%.
COc1ccc(NC2CCCN(C(=O)c3csc(C(C)C)n3)C2)cc1 (stereo not drawn) was read as VDR inh -7%.
For COc1ccccc1NCC(=O)N/N=C(\C)c1ccc(Br)s1 the results were VDR inh -14%.
Screening Cc1cc(C)cc(NC(=O)C[n+]2ccccc2)c1 returned VDR inh -7%.
`Cc1nn(C)cc1/C=N/NC(=O)Cn1cncn1` gave VDR inh -2%.
CC(=O)NC1=CC(=O)c2nonc2C1=O was read as VDR inh 56µM*.
Cc1ccc(N(C(=O)Cn2nnc(-c3cccs3)n2)C(C(=O)NC2CCCC2)c2ccncc2)cc1 (stereo not drawn) was read as VDR inh -11%.
`CCn1c(SCC(=O)c2ccc(Cl)cc2)nnc1C(C)C` gave VDR inh inconclusive.
Screening CCOc1ccccc1C(=O)Nc1ccc2nc(N3CCN(c4ncccn4)CC3)cc(C)c2c1 returned VDR inh -13%.
For COc1ccc(NC(=O)CC2C(=O)NCCN2C(=O)Nc2ccc(C(F)(F)F)cc2)cc1 (stereo not drawn) the results were VDR inh 5%.
For NC(=O)C1CCN(S(=O)(=O)Cc2ccccc2Cl)CC1 the results were VDR inh 6%.
`O=C(CSc1nc2c(oc3ccccc32)c(=O)n1Cc1ccco1)Nc1ccccc1Cl` gave VDR inh -3%.
For O=C(Nc1cc(C(F)(F)F)ccc1N1CCOCC1)c1ccc2ccccc2n1 the results were VDR inh -16%.
Screening CN(C)CCCn1c(SCc2c(Cl)cccc2Cl)nnc1-c1ccncc1 returned VDR inh -1%.
Cc1ccc(C(=O)OCCOc2cccc(Cl)c2)cc1S(=O)(=O)N1CCOCC1 was read as VDR inh 12%.
COc1cccc(C(=O)c2sc(NC(C)C)nc2N)c1 was read as VDR inh -7%.
Cc1ccc(N(CC(=O)NC(C)C)C(=O)CCC(=O)Nc2nccs2)cc1C was read as VDR inh -9%.
O=C(Nc1ccc(F)cc1)c1nn(-c2ccccc2)c(=O)cc1Cl was read as VDR inh -10%.
Cc1nc2c(ccc3c2ccc2nc(C)sc23)s1 was read as VDR inh -7%.
`O=C(OCCN=C1NS(=O)(=O)c2ccccc21)c1cccs1` gave VDR inh -14%.
`CCn1c(=O)c2c(n3cnnc13)-c1ccccc1CC21CCCCC1` gave VDR inh -11%.
`COc1cccc(-c2sc3ccc(OC)cc3c2-c2ccc(OCCN3CCCCC3)cc2)c1` gave VDR inh -12%.
`Cc1cnc(NC(=O)CCCNC(=O)c2ccc(Cl)cc2)s1` gave VDR inh -7%.
Screening COC(=O)[C@@]1(Cc2ccc(F)cc2)[C@H]2c3cc(C(=O)N(C)C)n(Cc4c(CO)[nH]cc(C)c4=O)c3C[C@H]2CN1C(=O)c1ccccc1 returned VDR inh 2%.
CCc1ccc(-c2csc(-c3c[nH]c4ccccc34)n2)cc1 was read as VDR inh -4%.
For CCOc1ccc(N(CC(=O)NCc2ccc(C)cc2)S(=O)(=O)c2c(C)[nH]c(=O)[nH]c2=O)cc1 the results were VDR inh -1%&-14%.
Screening CC(=O)N1CCN(c2ccc(NC(=O)c3ccccc3)cc2)CC1 returned VDR inh -11%.
For COc1ccc(/C=C/c2nc(-c3ccccc3O)n(-c3ccccc3)n2)cc1 the results were VDR inh 12%.
For NC(=O)c1sc2cc(C(F)(F)F)cnc2c1-c1ccccc1 the results were VDR inh -3%.
Screening CCCOc1ccc(CSc2n[nH]c(C)n2)cc1 returned VDR inh 0%.
For COC(=O)NC(NC(=S)Nc1cccc(C)c1)C(Cl)(Cl)Cl (stereo not drawn) the results were VDR inh -5%.
`Cc1cc(Oc2ccc(=O)n(C)n2)nc(SCc2ccccc2)n1` gave VDR inh -11%.
Cc1c(NC(=O)C(F)(F)F)ccc2nc3c(=O)n(C)c(=O)n(C)c3nc12 was read as VDR inh -3%.
For CC(C)[C@H]1COCCS(=O)(=O)N1Cc1ccccc1 the results were VDR inh -13%.
CCOc1ccc2nc(C)cc(Nc3ccccc3OCC)c2c1 was read as VDR inh 5%.
O=C(Cc1ccc(NC(=O)C2CCN(C(=O)C3CCC3)CC2)cc1)Nc1cccc(C(=O)N2CCCC2)c1 was read as VDR inh -18%.
CCC(=O)Nc1ccc(C(=O)NNC(=O)c2ccccc2)cc1 was read as VDR inh -5%.
Cc1cc(=O)n2nc(-c3ccccc3)sc2n1 was read as VDR inh 9%.
O=C(NC1CCCC1)C1c2ccccc2C(=O)N1CCCN1CCOCC1 (stereo not drawn) was read as VDR inh -7%.
Screening Cc1cc(=O)[nH]c(N/N=C/c2ccccc2C(F)(F)F)n1 returned VDR inh -2%.
`Cc1cc(NC(=O)c2ccccc2)n(-c2nc3ccccc3[nH]2)n1` gave VDR inh 3%.
CC(=O)Nc1ccc(NC(=O)CSc2nnc(-c3ccc4c(c3)OCO4)o2)cc1 was read as VDR inh -9%.
Screening CC(C)CCOCC(O)CCC(=O)NNC(=S)Nc1ccccc1 (stereo not drawn) returned VDR inh -8%.
Screening Cc1c2c(nc3c(C(=O)NC4CC4)cnn13)CCCC2 returned VDR inh -3%.
For Cc1nc(-c2ccc(S(=O)(=O)Nc3cccc(Cl)c3)cc2)co1 the results were VDR inh 7%.
For CCOC(=O)c1cc2c(=O)n3ccccc3nc2n(Cc2ccco2)c1=NC(=O)c1cccc(OC)c1 the results were VDR inh 1%.
For CCOc1ccc(N(Cc2ccc(C(=O)O)cc2)S(=O)(=O)c2ccc(C)cc2)cc1 the results were VDR inh -11%.
For CCCNCC1C(Oc2ccc(Cl)cc2Cl)C(=O)N1c1cccc(C)c1C (stereo not drawn) the results were VDR inh -4%.
CC(=O)c1ccc(N2CCN(S(=O)(=O)c3cc(-c4cc(C)no4)ccc3C(C)C)CC2)cc1 was read as VDR inh 6%.
`COCCN1C(=O)N[C@@H](CCc2ccccc2)C(C(=O)OC)=C1C` gave VDR inh -10%.
`Cc1ccc(S(=O)(=O)Nc2cccc(-c3cn4ccsc4n3)c2)cc1` gave VDR inh 20%.
`CCOc1ccc(S(=O)(=O)N(C)C2CCCCC2)cc1` gave VDR inh 2%.
`CCC(C)NC(=O)CC(c1ccccc1)c1cc(C)ccc1O` (stereo not drawn) gave VDR inh 7%.
`CCc1ccc(N2CC(C(=O)Nc3ccc(C)c(S(=O)(=O)N4CCOCC4)c3)CC2=O)cc1` (stereo not drawn) gave VDR inh 1%.
Screening Cc1cc(OCCN2CCCC2)ccc1C(C)C returned VDR inh 4%.
For Nc1nonc1C(=O)NCCNS(=O)(=O)c1ccc(Br)cc1 the results were VDR inh -2%.
`COc1cnc(SCC(=O)O)[nH]c1=O` gave VDR inh 23%.
`O=C(Cc1ccccc1)NC(=S)Nc1cccc(C(F)(F)F)c1` gave VDR inh 11%.
Screening Cc1ccc(C(=O)OC(C(=O)O)C(OC(=O)c2ccc(C)cc2)C(=O)O)cc1 (stereo not drawn) returned VDR inh 7%.
`Cc1cccc(C(=O)NC(C)C(=O)NC(c2nc3ccccc3[nH]2)C(C)C)c1` (stereo not drawn) gave VDR inh -10%.
O=C1C2C3C=CC(C3)C2C(=O)N1c1cccnc1 (stereo not drawn) was read as VDR inh -2%.
Screening Cc1c(Cl)cccc1NC(=O)CCN1C(=O)NC(C)(C)C1=O returned VDR inh 9%.
`CCOC(=O)N1CCN(C(=O)/C(=C/c2cccs2)NC(=O)c2cccs2)CC1` gave VDR inh 8%.
O=C(CCc1ccccc1)c1ccc2c(c1)OCCCO2 was read as VDR inh -7%.
CCOc1ccc(C(=O)NC(=S)Nc2cccc(NC(=O)c3ccco3)c2)cc1[N+](=O)[O-] was read as VDR inh -26%.
Screening CCCCc1cc(=O)oc2cc(OCC(=O)N(CC)CC)c(Cl)cc12 returned VDR inh 0%.
For CCN(C(=O)Cn1c(Cl)nc2c1c(=O)n(C)c(=O)n2C)C1CCCCC1 the results were VDR inh -26%.
`CCOc1ccc(OCC)c(NC(=O)CNS(=O)(=O)c2cccs2)c1` gave VDR inh -11%.
